From PubChem BioAssay
GLA inh pH 4.5 – inhibitors of human alpha-galactosidase A at pH 4.5. 230,000 tested, under 10 active. purified enzyme, 4-MU-alpha-Gal fluorescence, pH 4.5. P06280. activity change, negative = inhibition, % at 105 µM; inconclusive = small, poorly fitted or top-dose-only inhibition, or a rising curve; inactive = flat fitted curve, though single readings scatter; no compound was filed as active;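 further: 0% = full activity with enzyme and -100% = basal without enzyme; dose as in the result columns while the protocol names 77 µM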
Rango release inh – inhibition of RanGTP-driven Rango-importin beta dissociation; O95149+P62826; Potency, µM (highest dose often 46.1 µM), for inactives: at the highest dose activity change, negative = inhibition; AID 540253; Biochemical FRET Rango-importin beta, RanGTP-induced dissociation; 0.071% of 340,000 active; active means falling FRET ratio curve, often poorly fitted, with flat reads before Ran was added; inconclusive means other falling curves, or compound fluorescence or quenching; inactive means flat or rising ratio curve;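 further: potency means the concentration at half of the fitted maximal effect; % of control where 0% means no effect; nearly all actives have a fitted effect of over 45% in size; -100% = wells without RanGTP and RCC1; the record marks most hits as doubtful in a second field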
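Recombinant Rango FRET biosensor (EYFP–snurportin 1 IBB–cerulean CFP10) at 0.1 uM premixed with 0.25 uM importin beta in PBS, 1 mM DTT, 0.02% Tween-20, 0.1% BSA. Compound added 5 min; RanGTP-RCC1 (0.6 uM Ran, 2 mM GTP, 0.2 uM RCC1) then triggers release, read at 45 min.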
miR-21 FLuc – raises the signal of a miR-21 reporter; 340,000 tested, under 10 active; Potency, µM (doses to about 38.3 µM), without a hit: top-dose reporter change, positive = more light; HeLa miR-21 FLuc reporter, luciferase, 48 h; AID 2288; active = well fitted rising curve with a large enough effect; inconclusive = small, poorly fitted or top-dose-only effect; inactive = no such curve, though single readings can be large or run the other way;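 further: % of control where 0% means no effect; miR-21 action dims this reporter so a rising signal means less miR-21 action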
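Compounds were titrated across several concentrations (up to approximately 40 uM) and incubated 48 hours with HeLa miR-21-FLuc reporter cells (miR-21 target sequence downstream of FLuc, endogenous miR-21). Readout was firefly luciferase luminescence after lytic detection reagent.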
Rango complex inh – prevents formation of the Rango-importin beta complex. 0.031% of 340,000 active. Potency, µM (series often up to 92.2 µM), inactives show at the top dose inhibition of complex formation. Rango CFP/YFP FRET sensor + importin beta, 45 min; active = rising FRET ratio curve, often small or poorly fitted; inconclusive = mostly compound fluorescence or quenching in the first reads; inactive = flat curves in all reads;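 further: potency means the concentration at half of the fitted maximal effect; 0% = DMSO wells and 100% = buffer wells lacking importin beta; nearly all actives have a fitted effect of over 15% in size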
Target sequence (Q14974 whole entry, looked up): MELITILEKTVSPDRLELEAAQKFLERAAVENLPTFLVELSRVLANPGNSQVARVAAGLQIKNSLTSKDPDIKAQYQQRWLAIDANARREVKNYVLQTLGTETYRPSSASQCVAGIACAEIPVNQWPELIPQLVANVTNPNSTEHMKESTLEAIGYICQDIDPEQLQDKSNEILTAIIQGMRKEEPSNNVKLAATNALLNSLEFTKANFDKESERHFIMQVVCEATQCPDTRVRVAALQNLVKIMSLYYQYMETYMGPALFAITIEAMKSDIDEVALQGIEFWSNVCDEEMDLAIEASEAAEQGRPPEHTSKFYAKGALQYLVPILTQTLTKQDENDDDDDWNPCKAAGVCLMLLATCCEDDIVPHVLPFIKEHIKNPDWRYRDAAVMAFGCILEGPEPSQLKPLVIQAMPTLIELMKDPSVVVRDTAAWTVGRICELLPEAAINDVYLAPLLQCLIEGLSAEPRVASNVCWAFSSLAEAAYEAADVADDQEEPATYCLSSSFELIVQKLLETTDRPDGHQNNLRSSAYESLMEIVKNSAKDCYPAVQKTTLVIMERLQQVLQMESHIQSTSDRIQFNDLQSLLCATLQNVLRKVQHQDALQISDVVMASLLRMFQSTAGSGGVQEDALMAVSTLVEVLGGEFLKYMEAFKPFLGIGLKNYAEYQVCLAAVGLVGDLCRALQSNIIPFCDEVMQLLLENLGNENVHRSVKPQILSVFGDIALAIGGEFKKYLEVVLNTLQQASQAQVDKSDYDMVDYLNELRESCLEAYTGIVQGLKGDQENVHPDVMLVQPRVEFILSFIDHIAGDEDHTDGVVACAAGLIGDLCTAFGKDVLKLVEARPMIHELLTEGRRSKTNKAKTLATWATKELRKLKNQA
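FRET biosensor Rango (snurportin 1 IBB between N-terminal EYFP and C-terminal Cerulean), 50 nM in PBS/1 mM DTT/0.02% Tween-20/0.1% BSA, preincubated 5 min RT with compound; 0.125 microM importin beta added, 45 min RT, CFP/YFP FRET ratio read.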
The depositor's hits bear a star; & = joins results of further samples. A portion of the library; count on the stated rates, not on these rows.

What do the screens show for `COCON1C(=O)CN(C(C)=O)C1c1ccc(Cl)cc1Cl` (centres undefined)?
GLA inh pH 4.5: 6; Rango release inh: 1%; miR-21 FLuc: -2%; Rango complex inh: -2.3%

Results for CCc1nn2c(NCCCO)cc(C)nc2c1-c1ccc(F)cc1 ?
Rango release inh: -12%; miR-21 FLuc: -14%; Rango complex inh: 3.5%

Results for CN(N=O)c1ccc(CC2CCc3ccccc32)cc1 (centres undefined) ?
Rango release inh: -5%; Rango complex inh: -3.5%

Results for Cc1nn(C(C)C(=O)NC2CCCCC2)c(=O)c2nn(-c3ccccc3)c(C)c12 (centres undefined) ?
Rango release inh: -1%; miR-21 FLuc: -2%; Rango complex inh: 3.4%

How did CC(C)(C)c1csc(NC(=O)CSc2nc3ccccc3c(=O)[nH]2)n1 do in these assays?
GLA inh pH 4.5: -5; Rango release inh: -8%; miR-21 FLuc: 16%; Rango complex inh: -1.6%

What do the screens show for `CCn1c(CCC(N)=O)nnc1SCC(=O)Nc1cccc(S(=O)(=O)N2CCCC2)c1`?
Rango release inh: 18%; Rango complex inh: -1.3%

Results for CC(C)(C)c1cc(-c2n[nH]c(=S)n2-c2ccccc2F)n[nH]1 ?
GLA inh pH 4.5: -8; Rango release inh: 12%; miR-21 FLuc: -52%; Rango complex inh: 2.1%

How did Cc1ccc(N/C(CSC(N)=O)=N/S(=O)(=O)c2ccccc2)cc1 do in these assays?
GLA inh pH 4.5: 0; Rango release inh: -6%; miR-21 FLuc: -14%; Rango complex inh: 4.0%

Results for O=C(COc1ccc(F)cc1)N1c2ccccc2CCc2ccccc21 ?
GLA inh pH 4.5: inconclusive; Rango release inh: -16%; miR-21 FLuc: 1%; Rango complex inh: -2.5%

Results for C#Cc1cccc(NC(=O)Cc2cccs2)c1 ?
Rango release inh: 6%; miR-21 FLuc: -16%; Rango complex inh: 2.1%

What do the screens show for `CCOC(=O)c1ccc(NC(=O)NC2CC3CCC(C2)N3C(=S)NC)cc1` (centres undefined)?
GLA inh pH 4.5: 0; Rango release inh: 7%; miR-21 FLuc: 4%; Rango complex inh: -0.6%

How did COc1cc(C(F)(F)F)nc2ccc(C#CCOC(=O)Nc3ccccc3)cc12 do in these assays?
GLA inh pH 4.5: 0; Rango release inh: -22%; miR-21 FLuc: 5%; Rango complex inh: 2.5%

How did O=C(O)CCSc1ccc2ccccc2n1 do in these assays?
GLA inh pH 4.5: -1&4; Rango release inh: -4%&13%; miR-21 FLuc: 11%&9%; Rango complex inh: 3.1%&1.7%

What do the screens show for `Cc1ccc(C(C#N)N2CCOCC2)cc1` (centres undefined)?
Rango release inh: 5%; miR-21 FLuc: 2%; Rango complex inh: -0.2%

What do the screens show for `COc1ccc(CN2CC(C(=O)N3CC(C)CC(C)C3)CC2=O)cc1` (centres undefined)?
Rango release inh: 2%; miR-21 FLuc: 0%; Rango complex inh: 3.3%

How did COc1ccc(C(=O)N2CCCC(c3nc(-c4cc(OC)c(OC)c(OC)c4)no3)C2)cc1 (centres undefined) do in these assays?
GLA inh pH 4.5: -5; Rango release inh: -1%; miR-21 FLuc: 9%; Rango complex inh: -6.3%

Results for CCC(=O)NNc1nc2c(C)cc(C)cc2s1 ?
GLA inh pH 4.5: 2; Rango release inh: -1%; miR-21 FLuc: -21%; Rango complex inh: -0.9%

How did COc1cccc(C(=O)Nc2ccccc2C(=O)NC2CC2)c1 do in these assays?
Rango release inh: -10%; miR-21 FLuc: -3%; Rango complex inh: -0.3%

Results for CCN(CC(=O)Nc1ccc(NC(C)=O)cc1)C(=O)CCN1C(=O)C2CC=CCC2C1=O (centres undefined) ?
Rango release inh: -3%; Rango complex inh: -3.5%

What do the screens show for `COc1ccc(CCNC(=O)c2ccc3nc[nH]c3c2)cc1`?
Rango release inh: 2%; miR-21 FLuc: -5%; Rango complex inh: 1.1%

What do the screens show for `CC1CCN(C2=C(NS(=O)(=O)c3ccc(Br)cc3)C(=O)c3ccccc3C2=O)CC1`?
Rango release inh: -12%; miR-21 FLuc: -24%; Rango complex inh: 1.4%

What do the screens show for `O=C(/C=C/c1ccc(S(=O)(=O)N2CCOCC2)cc1)Nc1ccc(F)c(F)c1F`?
Rango release inh: 0%; Rango complex inh: -2.2%

What do the screens show for `CCOC(=O)C1CCCN(C(=O)c2cc3nc(-c4cccc(OC)c4)cc(C(F)(F)F)n3n2)C1` (centres undefined)?
GLA inh pH 4.5: -17; Rango release inh: 9%; miR-21 FLuc: 1%; Rango complex inh: inconclusive

How did Cc1ncc(CO)c(/C=N/NC(=O)c2cccc(S(=O)(=O)N3CCCC3)c2)c1O do in these assays?
Rango release inh: inconclusive; Rango complex inh: inconclusive

How did CCCCCC(C)NC(=S)NC(=O)c1cc(S(=O)(=O)N2CCOCC2)ccc1C (centres undefined) do in these assays?
GLA inh pH 4.5: -12; Rango release inh: 4%; miR-21 FLuc: 28%; Rango complex inh: 0.6%

Results for CCc1ccc(S(=O)(=O)Nc2ccc(Cl)cn2)cc1 ?
Rango release inh: 8%; miR-21 FLuc: -3%; Rango complex inh: -1.8%

How did COc1ccc2c3c(cccc13)C(=O)N(O)C2=O do in these assays?
GLA inh pH 4.5: 0; Rango release inh: 1%; miR-21 FLuc: 12%; Rango complex inh: inconclusive

Results for O=C(c1ccc(-c2ccccc2)cc1)N1CCN(c2ccccc2F)CC1 ?
Rango release inh: 0%; miR-21 FLuc: -14%; Rango complex inh: -0.1%

Results for Fc1cccc(Cl)c1Cn1ncc2ccccc21 ?
Rango release inh: -17%; miR-21 FLuc: -18%; Rango complex inh: 0.8%

What do the screens show for `O=C(N/N=C/c1ccccc1Cl)c1[nH]c2ccc(Br)cc2c1-c1ccccc1`?
GLA inh pH 4.5: -12; Rango release inh: inconclusive; miR-21 FLuc: 20%; Rango complex inh: inconclusive

What do the screens show for `CS(=O)(=O)N1CCC(Oc2ccccc2C(=O)NCCCc2cccnc2)CC1`?
GLA inh pH 4.5: -4; Rango release inh: -1%; miR-21 FLuc: inconclusive; Rango complex inh: -3.0%

Results for CC1(C(=O)NC(=S)N(CCC#N)Cc2cccnc2)CC1(Cl)Cl (centres undefined) ?
GLA inh pH 4.5: 8; miR-21 FLuc: -7%

Results for CN(C)c1ccc(C2N(c3ccc(Cl)cc3)C(=O)C3CCCN32)cc1 (centres undefined) ?
GLA inh pH 4.5: -1; Rango release inh: -8%; miR-21 FLuc: -21%; Rango complex inh: 1.5%

What do the screens show for `O=C(N/N=C/c1ccc(N2CCOCC2)s1)c1ccc(NS(=O)(=O)c2cccs2)cc1`?
GLA inh pH 4.5: -20; Rango release inh: inconclusive; miR-21 FLuc: -12%; Rango complex inh: inconclusive

How did Cc1cc(C)c2c(-n3cccc3)c(C(=O)NNS(=O)(=O)c3ccc(F)cc3)sc2n1 do in these assays?
GLA inh pH 4.5: 0; Rango release inh: inconclusive; miR-21 FLuc: -9%; Rango complex inh: -2.7%

Results for CCOC(=O)C1CCCN(C(=O)C2CCN(S(=O)(=O)CC)CC2)C1 (centres undefined) ?
GLA inh pH 4.5: -11; Rango release inh: 14%; miR-21 FLuc: -1%; Rango complex inh: -1.3%

How did O=C(Nc1ccccc1)c1cc2ccccc2c(=O)s1 do in these assays?
GLA inh pH 4.5: -13; Rango release inh: -7%; miR-21 FLuc: -1%; Rango complex inh: -2.6%

Results for O=C(CCCC(=O)N(CC(=O)NC1CCCCC1)Cc1ccc2c(c1)OCO2)Nc1ccccn1 ?
GLA inh pH 4.5: -7; Rango release inh: -4%; miR-21 FLuc: -1%; Rango complex inh: 2.6%

What do the screens show for `Nc1nc(Cn2nnc(-c3ccccc3F)n2)nc(N2CCOCC2)n1`?
GLA inh pH 4.5: -1; Rango release inh: 22%; miR-21 FLuc: -14%; Rango complex inh: 4.0%

What do the screens show for `CCOC(=O)c1ccc2c(c1)nc(C)n2CC`?
Rango release inh: 15%; Rango complex inh: 3.3%

What do the screens show for `C=CCSc1nnc(CNC(=O)c2ccccc2C)n1C(C)C`?
GLA inh pH 4.5: -5; Rango release inh: -6%; miR-21 FLuc: -8%; Rango complex inh: -0.7%

What do the screens show for `CCN1C(=O)/C(=C/c2cnn(CC)c2C)SC1=S`?
GLA inh pH 4.5: -1; Rango release inh: -9%; miR-21 FLuc: -21%; Rango complex inh: 0.2%

Results for Cc1ccc(NC(=O)CC(=O)c2ccccc2)cc1C ?
Rango release inh: -7%; miR-21 FLuc: -61%; Rango complex inh: 2.9%

Results for COc1ccc2[nH]c(C)c(C(=O)CN(C)C)c2c1 ?
GLA inh pH 4.5: 0; Rango release inh: -4%; miR-21 FLuc: 3%; Rango complex inh: 4.2%

How did COc1ccc(C(=O)Nc2ccc(N3CCCCC3)cc2)cc1Br do in these assays?
GLA inh pH 4.5: -22; Rango release inh: -7%; miR-21 FLuc: -54%; Rango complex inh: -3.4%

Results for COc1ccc(NS(=O)(=O)c2ccc(-n3nnc4ccccc43)c([N+](=O)[O-])c2)cc1 ?
GLA inh pH 4.5: -1; Rango release inh: -28%; miR-21 FLuc: 1%; Rango complex inh: -1.5%

Results for COc1ccc(N2CCN(C(=O)c3ccccc3NC(=O)C3=C(C)OCCS3)CC2)cc1 ?
Rango release inh: 0%; miR-21 FLuc: 6%; Rango complex inh: -0.1%

How did CNCc1c(C)nn(-c2ccccc2)c1C do in these assays?
GLA inh pH 4.5: 4; Rango release inh: -5%; miR-21 FLuc: 6%; Rango complex inh: 1.3%

How did COc1ccc(CNC(=S)N/N=C/c2ccc(OC)c(OC)c2)cc1 do in these assays?
GLA inh pH 4.5: -14; Rango release inh: 8%; miR-21 FLuc: -21%; Rango complex inh: 0.2%

What do the screens show for `Cn1c(-c2ccccc2)cnc1SCC(N)=O`?
GLA inh pH 4.5: 5; Rango release inh: 1%; miR-21 FLuc: -13%; Rango complex inh: -2.0%

How did Cc1cn(C(=O)c2ccccc2)c(=S)n1-c1ccc(Br)cc1 do in these assays?
GLA inh pH 4.5: 1; Rango release inh: -18%; miR-21 FLuc: -6%; Rango complex inh: 2.1%

How did Cc1ccc(NS(=O)(=O)c2c(C)[nH]c(C)c2C(=O)N2CCCCC2)cc1Cl do in these assays?
Rango release inh: 7%; miR-21 FLuc: 11%; Rango complex inh: -1.4%

Results for C#CCOCCOCCOCCNc1nc(N2CCN(C(=O)[C@H](C(C)C)n3cc(CCO)nn3)CC2)nc(N2CCN(C(=O)[C@H]([C@@H](C)CC)n3cc(CCC(=O)O)nn3)CC2)n1 ?
Rango release inh: 19%; Rango complex inh: -0.1%

Results for COc1ccc(Nc2nc(-c3ccccc3)nc3ccccc23)cc1 ?
Rango release inh: 0%; miR-21 FLuc: 11%; Rango complex inh: -5.8%

Results for COc1ccccc1C(CNC(=O)c1ccco1)N1CCCC1 (centres undefined) ?
Rango release inh: -4%; Rango complex inh: inconclusive

What do the screens show for `COc1cc(OC)cc(-n2nnnc2SCC(=O)NCc2ccc3c(c2)OCO3)c1`?
GLA inh pH 4.5: 0; Rango release inh: -3%; miR-21 FLuc: -4%; Rango complex inh: -0.6%

An excerpt from further up:
Results for COc1ccc(NS(=O)(=O)c2ccc(-n3nnc4ccccc43)c([N+](=O)[O-])c2)cc1 ?
GLA inh pH 4.5: -1; Rango release inh: -28%; miR-21 FLuc: 1%; Rango complex inh: -1.5%

Results for COc1ccc(N2CCN(C(=O)c3ccccc3NC(=O)C3=C(C)OCCS3)CC2)cc1 ?
Rango release inh: 0%; miR-21 FLuc: 6%; Rango complex inh: -0.1%

How did CNCc1c(C)nn(-c2ccccc2)c1C do in these assays?
GLA inh pH 4.5: 4; Rango release inh: -5%; miR-21 FLuc: 6%; Rango complex inh: 1.3%

How did COc1ccc(CNC(=S)N/N=C/c2ccc(OC)c(OC)c2)cc1 do in these assays?
GLA inh pH 4.5: -14; Rango release inh: 8%; miR-21 FLuc: -21%; Rango complex inh: 0.2%

What do the screens show for `Cn1c(-c2ccccc2)cnc1SCC(N)=O`?
GLA inh pH 4.5: 5; Rango release inh: 1%; miR-21 FLuc: -13%; Rango complex inh: -2.0%
